VDR inh: inhibitors of human vitamin D receptor | P11473 | VDR-SRC2-3 peptide fluorescence polarization, 2 h | Potency, µM, for the others: max response, negative = inhibition, most hits filed as inhibitors | hit rate 0.93% among 400,000 | AID 504847; active = well fitted inhibition curve with a large enough effect; inconclusive = small, poorly fitted or top-dose-only effect, or another doubt; inactive = no such curve, though single readings can be large or run the other way; note: series mostly up to about 120 µM
Target sequence (P11473 whole entry, looked up): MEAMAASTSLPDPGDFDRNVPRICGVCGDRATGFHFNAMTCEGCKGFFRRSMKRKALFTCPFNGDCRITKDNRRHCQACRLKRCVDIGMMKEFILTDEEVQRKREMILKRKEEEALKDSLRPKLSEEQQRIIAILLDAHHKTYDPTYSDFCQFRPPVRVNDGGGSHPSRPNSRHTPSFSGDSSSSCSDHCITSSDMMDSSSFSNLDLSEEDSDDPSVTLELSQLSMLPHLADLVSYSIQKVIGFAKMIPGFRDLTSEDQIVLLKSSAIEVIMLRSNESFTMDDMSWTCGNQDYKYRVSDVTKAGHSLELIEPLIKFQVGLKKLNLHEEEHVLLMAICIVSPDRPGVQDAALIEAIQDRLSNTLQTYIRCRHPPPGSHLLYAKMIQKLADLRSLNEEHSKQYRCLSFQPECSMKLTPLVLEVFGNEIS
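Reagent solutions, kept cold and dark, are dispensed first; compounds are then pinned in at 23 nl, plates briefly spun, and incubated 2 h at ambient temperature. Inhibition of VDR–SRC2-3 peptide binding is read by fluorescence polarization.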
Active calls of the source: *; ? = inconclusive; & = joins results of further samples; [ ] = dose if it differs, or a comment. % is set by controls: 0 for no effect and ±100 for the full control effect; potency is the fitted concentration of half-maximal effect.

entry | Compound | VDR inh
1 | CCc1ccc(C(O)(c2ccccc2OC)C(CN2CCOCC2)c2ccccc2)cc1 (centres undefined) | 1%
2 | NC1=NC[C@H](Cc2ccccc2)N1CCc1cc(C(F)(F)F)cc(C(F)(F)F)c1 | -3%
3 | Cc1nc(SC2CC(=O)N(c3cc(Cl)cc(Cl)c3)C2=O)nc2c1CCCC2 (centres undefined) | 13%
4 | CCCCc1nccn1CCn1ccnc1CCCC | 16%
5 | CCCCn1nc(C(=O)NC2CCCCCC2)c2ccccc2c1=O | -4%
6 | COc1cc2c(=O)c(S(=O)(=O)c3ccc(F)cc3)cn(Cc3ccccc3C)c2cc1OC | -6%
7 | Cc1ccccc1Nc1c(-c2ccc(O)cc2)nc2c(C)cccn12 | -21%
8 | Cc1cc(C)c(NC(=O)C2=CCN(S(=O)(=O)c3ccc(F)cc3)CC2)c(C)c1 | -4%
9 | CCCCNC(=O)N1CCN(C(=O)C2CCCO2)CC1 (centres undefined) | -2%
10 | COc1ccc(CC(=O)Nc2nc(C)cs2)cc1OC | 1%
11 | CCOC(=O)CSc1nnc(COc2ccc3ccccc3c2)o1 | -22%
12 | COc1ccc(C2Nc3ccc(NC(=O)CO)cc3C(=O)N2Cc2cccc(Cl)c2)cc1COc1ccc(NC(C)=O)cc1 (centres undefined) | -8%
13 | COc1ccc(C2/C=C\CN(C(=O)C3CCCCC3)C(Cc3ccccc3)C(=O)N2Cc2ccc(F)cc2)cc1 (centres undefined) | 3%
14 | O=C(CSc1nnc(COc2ccccc2F)n1-c1ccccc1)NCc1ccco1 | -8%
15 | COc1cccc(CS(=O)(=O)c2nnnn2-c2ccccc2)c1 | ?
16 | COc1ccc(NC(=O)CN2CCN(c3ccc(F)cc3)CC2)cc1Cl | 22%
17 | N=c1oc2ccccc2cc1-c1nc2ccccc2c(=O)[nH]1 | -2%
18 | COc1ccccc1NC(=O)CCn1cnc2ccccc2c1=O | 12%
19 | COc1ccc(NC(=O)C2=CC(c3ccc(C)cc3)=NS(=O)(=O)N2C)cc1OC | -5%
20 | O=C(O)c1cc(NC2(c3ccccc3)C(=O)c3ccccc3C2=O)ccc1Cl | 7%
21 | CC(=O)c1nnn(-c2cccc([N+](=O)[O-])c2)c1C | 9%
22 | COc1ccc(-c2cn3cccc(C)c3n2)cc1F | -19%
23 | COc1ccc(-c2ccc(=O)n(CC(=O)Nc3ccc(OC)c(OC)c3)n2)cc1 | 19%
24 | Cc1cccc(C(C)C)c1NC(=O)COC(=O)COc1ccc2c(C)cc(=O)oc2c1 | -5%
25 | CC(=O)Nc1ccc(NC(=O)CCCN2C(=O)c3ccccc3C2=O)cc1 | 5%
26 | Cc1ccc(Cl)cc1NC(=O)C1CCN(c2nnc(C)c3c(C)n(-c4ccccc4)nc23)CC1 | 8%
27 | CCOc1ccc(NC(=O)Cc2c[nH]c3ccccc23)cc1 | 2%
28 | Cc1cc2oc(=O)c(CC(=O)NCCCN(C)C)c(C)c2c2occ(C(C)(C)C)c12 | -3%
29 | CN1C(=O)[C@H]2[C@@H](C3CC3)N3C(=O)CN(Cc4ccccc4)C(=O)[C@@]3(C)[C@H]2C1=O | 2%
30 | CCOc1ccccc1NC(=O)CN1CCc2ccccc2C1 | -11%
31 | CNC(=S)N/N=C1\CC(c2ccccc2)Oc2ccccc21 (centres undefined) | -19%
32 | Cc1cccc(C(=O)Nc2nc(-c3nnn(-c4cc(C)ccc4C)c3C)ns2)c1 | -3%
33 | O=[N+]([O-])c1cccc(/C=N/Nc2ncc(Br)cn2)c1 | -6%
34 | COc1ccc(NS(=O)(=O)c2ccc(-c3coc(C)n3)cc2)cc1 | 45%[activator]
35 | C=CCNC(=O)/C(C#N)=C/c1ccccc1Cl | 2%
36 | COC(=O)[C@@H](NC(=O)NCc1cccc(OC)c1)C(C)C | 6%
37 | CC(=O)N1CCN(Cc2nc3cc(NS(C)(=O)=O)ccc3n2C)CC1 | 5%
38 | CCOC(=O)N1N=C(CC)CC1(O)C(F)(F)F (centres undefined) | 1%
39 | CCOC(=O)CCNCc1ccc(F)cc1 | -22%
40 | COc1ccc(C(=O)N2CCc3cc(OC)c(OC)cc3C2c2cccc([N+](=O)[O-])c2)cc1OC (centres undefined) | -4%
41 | CC(NC(=O)c1ccccc1)c1ccc(Br)cc1 (centres undefined) | 15%
42 | COc1ccc(C(=O)C2CCN(C(=S)NCCc3ccc(OC)c(OC)c3)CC2)cc1 | -3%
43 | CCC(C)OC(=O)C1=C(C)O[C@]23OC(N)=C(C#N)[C@]12C(=O)c1ccccc13 (some centres undefined) | -4%
44 | Cn1c(SCC(=O)Nc2ccc3c(c2)OCO3)nnc1-c1cnccn1 | 13%
45 | CC(=O)OCCCn1c(C)[n+](C)c2cc(Cl)c(Cl)cc21 | -4%
46 | O=C(NC(=S)Nc1cc(Cl)ccc1N1CCOCC1)c1ccccc1[N+](=O)[O-] | 14%
47 | CC1CCN(S(=O)(=O)c2cn(C)c(=O)n(C)c2=O)CC1 | -5%
48 | O=C(O)CC1(CC(=O)Nc2cc3ccccc3cn2)CCCCC1 | -1%
49 | CCCCn1c(O)c(C(CC)=Nc2ccc3c(c2)CCC3)c(=O)[nH]c1=O | 0%
50 | CCOC(=O)c1c(-c2ccc(C)o2)csc1NC(=O)CSc1nncs1 | ?

The list continues:
entry | Compound | VDR inh
51 | CCOc1ccccc1Nc1nnc(SCC(=O)NCC2CCCO2)s1 (centres undefined) | 17%
52 | Nc1cc(C(=O)O)c(Oc2ccc(Cl)cc2Cl)cc1C(=O)O | 11%
53 | C=CC(N)CCC(=O)O (centres undefined) | -6%&-1%
54 | CCN1C(=O)[C@H]2[C@@H](c3ccc(C)cc3)N3C(=O)N(c4ccc(C(F)(F)F)cc4)C(=O)[C@@]3(CC(C)C)[C@H]2C1=O | -4%
55 | Cc1cc(C(=O)NC2=NCCS2)cs1 | 7%
56 | CCC(=O)Nc1cccc(-n2nnnc2SCC(=O)NCc2ccco2)c1 | 3%
57 | COc1cccc(Cn2c(NCc3ccc(C)cc3)nc3c2c(=O)n(C)c(=O)n3C)c1 | -26%
58 | CCSc1n[nH]c2nc3c(c(=O)n12)C1(CCCCC1)Cc1ccccc1-3 | ?
59 | O=C(CC1C(=O)OCCN1Cc1ccccc1)Nc1cccc(Cl)c1 (centres undefined) | 1%
60 | Fc1ccc2c(-c3cccc(C(F)(F)F)c3)c(-c3ccccc3)ncc2c1 | 1%
61 | Cc1cccc2sc(NC(=O)CSc3nnnn3C)nc12 | -18%
62 | CCOC(=O)c1c(S(=O)(=O)NCc2ccco2)c(C)n(C)c1C | -1%
63 | CCN(CC)S(=O)(=O)c1cc(NC(=O)C(C)N(C)CC(=O)Nc2c(C)cccc2C)ccc1C (centres undefined) | -10%
64 | CC1C(=O)N2CCCc3cc(NC(=O)C(=O)NCc4ccccn4)cc1c32 (centres undefined) | ?
65 | CCOc1ccc(N=Nc2c(=O)[nH]n3c(C)cc(C)nc23)cc1 | -9%
66 | O=C(Nc1ncc(Cc2ccccc2Cl)s1)C1=NCCN1 | 5%
67 | O=[N+]([O-])c1ccc(CN2C=NS(=O)(=O)c3ccccc32)cc1 | 5%
68 | COc1cc(C(=O)OCC(=O)NC(=O)C2CCCCC2)ccc1OC(F)F | -17%
69 | Cc1c(NC(=O)NC(C)N2C(=O)C3C4C=CC(C4)C3C2=O)c(=O)n(-c2ccccc2)n1C (centres undefined) | 7%
70 | CCCn1nc(C(=O)Nc2ccc(N3CCOCC3)cc2)c2ccccc2c1=O | -14%
71 | N[C@H](C(=O)O)c1nn[nH]n1 | 1%
72 | Cc1cc(NC(=O)c2cc(-c3cccc(Cl)c3)on2)nn1Cc1ccc(Cl)cc1 | 1%
73 | C/C(=N\NC(=O)CC(C)C)c1c(C(F)(F)F)[nH]n(-c2nc3ccccc3s2)c1=O | -13%
74 | CCc1cccc(C)c1NC(=O)CN1C(=O)C2(SCC(=O)N2c2cc(C)cc(C)c2)c2ccccc21 (centres undefined) | 9%
75 | CCCCNC(=O)CN(c1cc(C(F)(F)F)ccc1Cl)S(C)(=O)=O | 16%
76 | CCC1Oc2ccc(C)cc2N(CC(=O)NC2CCCCC2)C1=O (centres undefined) | -4%
77 | CCc1nnc(NC(=O)c2ccc(-c3ccc(Cl)cc3)o2)s1 | 2%
78 | CNc1c(NS(=O)(=O)c2cc(NC(C)=O)ccc2C)c(=O)oc2ccccc12 | -13%
79 | COc1cccc(NC(=O)CN(C)C(=O)c2cc(-c3cccc(Br)c3)nc3ccccc23)c1 | -5%
80 | c1ccc(-c2nc(N3CCOCC3)sc2-c2ccccc2)cc1 | -11%
81 | CCc1ccc(-c2cc(C)no2)cc1S(=O)(=O)Nc1ccc(Cl)cn1 | 1%&-14%
82 | COc1cccc(/C=C2/C(=O)NN(c3ccc(C)c(C)c3)C2=O)c1 | 79µM*
83 | COC(=O)C(O)(CC(=O)Nc1cc(OC)c(OC)c(OC)c1)C(F)(F)F (centres undefined) | 7%
84 | Cc1nc2sc(C(c3ccco3)N3CCOCC3)c(O)n2n1 (centres undefined) | 7%
85 | O=C(COC(=O)c1cccc(F)c1)NC(=O)NCc1ccccc1 | 8%
86 | O=[N+]([O-])c1nn(-c2ccccc2)[n+]([O-])c1N1CCN(c2ccccc2F)CC1 | -14%
87 | Cc1ccc(OCC(O)CN2CCCC2)cc1 (centres undefined) | -13%
88 | N#C/C(=C\c1cn(CCOc2ccccc2)c2ccccc12)C(=O)NCc1ccco1 | 16%
89 | O=C(O)C1CCCCC1C(=O)NCCc1ccncc1 (centres undefined) | 2%
90 | COc1ccc(N=C2SC(CC(=O)Nc3ccccc3)C(=O)N2CC2CCCO2)cc1 (centres undefined) | -11%
91 | CC1CCOC2(O1)C(=O)Nc1ccccc12 (centres undefined) | -14%
92 | CC(=O)c1cccc(NC(=O)C(C)OC(=O)Cc2n[nH]c(=O)c3ccccc23)c1 (centres undefined) | -3%
93 | COc1cccc(N2CCN(C(=O)C3CCN(S(=O)(=O)c4c(C)noc4/C=C/c4ccccc4F)CC3)CC2)c1 | 2%
94 | COc1ccc(C(=O)O)cc1S(=O)(=O)N1CCN(c2ccccn2)CC1 | 13%
95 | CCN(CC)S(=O)(=O)c1cccc(-c2n[nH]c(=S)n2/N=C/c2ccc(Br)cc2)c1 | -24%
96 | O=C(NC1CCCCCC1)c1cc(S(=O)(=O)N2CCCCC2)ccc1N1CCOCC1 | 14%
97 | CCOc1ccc(NC(=O)Cn2c(=O)n(CCCS(=O)(=O)C3CCCCC3)c(=O)c3ccccc32)cc1 | -16%
98 | COc1cccc(NC(=O)CCc2nnc3ccc(NCc4ccco4)nn23)c1 | -11%
99 | C=CC[C@@]12C=C(OC)C(=O)C(OC)=C1O[C@H](c1ccc3c(c1)OCO3)[C@H]2C | -18%
100 | Cc1nnc(NC(=O)c2ccc3c(c2)NC(=O)CS3)s1 | ?

Arranged by length of the SMILES (lowest first): some entries from above
entry | Compound | VDR inh
87 | Cc1ccc(OCC(O)CN2CCCC2)cc1 (centres undefined) | -13%
91 | CC1CCOC2(O1)C(=O)Nc1ccccc12 (centres undefined) | -14%
89 | O=C(O)C1CCCCC1C(=O)NCCc1ccncc1 (centres undefined) | 2%
84 | Cc1nc2sc(C(c3ccco3)N3CCOCC3)c(O)n2n1 (centres undefined) | 7%
80 | c1ccc(-c2nc(N3CCOCC3)sc2-c2ccccc2)cc1 | -11%
76 | CCC1Oc2ccc(C)cc2N(CC(=O)NC2CCCCC2)C1=O (centres undefined) | -4%
85 | O=C(COC(=O)c1cccc(F)c1)NC(=O)NCc1ccccc1 | 8%
81 | CCc1ccc(-c2cc(C)no2)cc1S(=O)(=O)Nc1ccc(Cl)cn1 | 1%&-14%
83 | COC(=O)C(O)(CC(=O)Nc1cc(OC)c(OC)c(OC)c1)C(F)(F)F (centres undefined) | 7%
90 | COc1ccc(N=C2SC(CC(=O)Nc3ccccc3)C(=O)N2CC2CCCO2)cc1 (centres undefined) | -11%
92 | CC(=O)c1cccc(NC(=O)C(C)OC(=O)Cc2n[nH]c(=O)c3ccccc23)c1 (centres undefined) | -3%
79 | COc1cccc(NC(=O)CN(C)C(=O)c2cc(-c3cccc(Br)c3)nc3ccccc23)c1 | -5%
95 | CCN(CC)S(=O)(=O)c1cccc(-c2n[nH]c(=S)n2/N=C/c2ccc(Br)cc2)c1 | -24%
99 | C=CC[C@@]12C=C(OC)C(=O)C(OC)=C1O[C@H](c1ccc3c(c1)OCO3)[C@H]2C | -18%
93 | COc1cccc(N2CCN(C(=O)C3CCN(S(=O)(=O)c4c(C)noc4/C=C/c4ccccc4F)CC3)CC2)c1 | 2%

Other entries follow.
entry | Compound | VDR inh
101 | NS(=O)(=O)c1cc(C(=O)OCC(=O)Nc2ccc(Cl)cc2[N+](=O)[O-])ccc1Cl | 6%
102 | CCN(CC)CCOC(=O)c1ccc(NC(=O)CCCN2C(=O)/C(=C\c3cccs3)SC2=S)cc1 | 13%
103 | O=C(c1ccccc1F)N1CCN(S(=O)(=O)c2ccc3c(c2)OCCO3)CC1 | -11%
104 | Cc1cc(C)cc(NS(=O)(=O)c2cc(C(=O)NCc3ccccn3)ccc2Cl)c1 | -12%
105 | CCOC(=O)N1CCN(C(=O)CSc2nnc3[nH]c(=O)c(C)c(C)n23)CC1 | -4%
106 | COc1ccc(N(CC(=O)Nc2ccccc2OC)S(=O)(=O)c2ccc(OC)c(OC)c2)cc1 | -8%
107 | COc1ccc(CCNC(=O)COc2ncnc3ccccc23)cc1 | -16%
108 | CCOC(=O)c1ccc(NC(=O)CSc2nc(-c3ccc(OC)cc3)cc(C(F)(F)F)c2C#N)cc1 | -8%
109 | CC1C(=O)Nc2ccccc2N1C(=O)c1ccc(Cl)c(Cl)c1 (centres undefined) | 7%
110 | COc1ccccc1N1CCN(C(=O)c2ccc(Nc3nc4ccccc4n4nnnc34)cc2)CC1 | -2%
111 | O=C(OCc1nc2ccccc2s1)C1CCN(C2=NS(=O)(=O)c3ccccc32)CC1 | -13%
112 | CCCN(CCC)CCCNC(=O)C1CCC(CNS(=O)(=O)c2cccc3nsnc23)CC1 (centres undefined) | -17%&-6%

Source: PubChem

Not all compounds are listed; the hit share may differ from the screen's.
